Compound activity deposited in PubChem BioAssay by National Center for Advancing Translational Sciences (NCATS).
HSD17B inhib: qHTS Assay for Inhibitors of HSD17B4, hydroxysteroid (17-beta) dehydrogenase 4. AID 893, 2007. Potency, µM (titrated, usually from 57.1 µM), for inactives: top-dose activity change, negative = inhibition, actives largely listed as inhibitors. recombinant HSD17B10, NADH fluorescence kinetic; many of its hits are not listed in these tables. 7.6% of 75,000 active; active means well fitted inhibition curve with a large enough effect; inconclusive means small, poorly fitted or top-dose-only effect; inactive means no such curve, though single readings can be large or run the other way;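 further: the protocol describes HADH2 (HSD17B10) and not the HSD17B4 of the title; nearly all actives have a fitted effect of over 70% in size; most hits overshoot -100% by far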
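His-tagged E. coli-expressed HADH2 at 20 nM in 100 mM Tris-HCl pH 9.0 with 0.01 % Tween-20, preincubated 15 min with compound at room temperature. Reaction with 1 mM NAD+ and 90 uM beta-hydroxybutyryl coenzyme A; NADH fluorescence (360/450 nm) read kinetically over 4 min, last minus first point.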
The depositor's hits bear a star; ? = inconclusive; [ ] = remark or other dose. On the % scale 0 is the no-effect control and ±100 the full control effect; potency means the concentration at half of the fitted maximal effect. A portion of the library (hit frequency here may not be typical).

SMILES | HSD17B inhib
C=CC[C@@H]1C=C[C@@H](O/N=C(/C)CCC(=O)OC[C@@H]2O[C@H](c3ccccc3)C=C[C@@H]2Oc2ccc(OC)cc2)[C@@H](CO)O1 | 0%[11.4 µM]
OCCCCNc1cccc2ccccc12 | 25µM*
Cc1cc2c(C)nc(-c3ccccc3)nc2o1 | 5%
Cc1noc(/C=C/c2ccco2)c1S(=O)(=O)N1CCC(C(=O)NCc2ccco2)CC1 | -27%
CCOC(=O)Cn1c(=O)c2c(nc3n2CCCCN3c2ccc(C)cc2)n(C)c1=O | 1%
COC(=O)CCc1c(C)c(C#N)c2nc3ccccc3n2c1N1CCCC1 | ?
CCCCn1c(CCNC(=O)CC)nc2ccccc21 | 4%
O=C(O)CC(c1ccccc1)c1ccccc1 | 7%
COc1ccc(-c2c3c(=O)n(C)c(=O)n(C)c3cn2Cc2cccnc2)cc1 | 8%
CCOC(=O)c1sc(NC(=O)c2ccc(CC)s2)nc1C | 11%
O=C(Cn1cc2c(n1)CCCCC2)NCc1ccccc1 | -4%
CCN(CC)CCn1c(-c2ccccc2)nc2c(NCc3ccccc3)nc(C)nc21 | 20µM*
Cc1ccc(OCC(=O)Nc2ccc(-c3nc4ncccc4o3)cc2)cc1 | ?
Cc1oc(-c2ccc(Cl)cc2)nc1CSCC(=O)NCCCN1CCOCC1 | ?
CCC(=O)NC(c1ccccc1)c1nc2ccccc2[nH]1 (centres undefined) | 0%
COc1cc(C(=O)O)nc2ccccc12 | 11%
CCS(=O)(=O)N1CCCC(C(=O)NCc2ccc3c(c2)OCO3)C1 (centres undefined) | -2%
Cn1c(=O)oc2cc(S(=O)(=O)NCCC(=O)N3CC=C(c4ccccc4)CC3)ccc21 | 6%
COc1cccc(-c2nccc(NCc3cccc(C)c3)n2)c1 | -14%
COc1ccc(-c2cc(CCCC(=O)NCc3ccccn3)no2)cc1 | -2%
CCc1ccc(CNc2ccc(N3CCN(C(C)=O)CC3)cc2)cc1 | 25µM*
c1ccc(-c2csc3nnc(SCc4ccc5c(c4)OCCO5)n23)cc1 | 0%
CC(C)(C)NC(=O)C(c1ccccc1)N(Cc1ccco1)C(=O)c1csnn1 (centres undefined) | 1%
COC(=O)c1ccc(-c2nc(-c3ccc(Br)o3)no2)cc1 | 5%
O=C(Nc1ccc2c(c1)OCCO2)C1CCN(c2cnccn2)CC1 | -20%

Arranged by molecular weight (ascending): some entries from above
SMILES | HSD17B inhib
COc1cc(C(=O)O)nc2ccccc12 | 11%
Cc1cc2c(C)nc(-c3ccccc3)nc2o1 | 5%
CCc1ccc(CNc2ccc(N3CCN(C(C)=O)CC3)cc2)cc1 | 25µM*
CCS(=O)(=O)N1CCCC(C(=O)NCc2ccc3c(c2)OCO3)C1 (centres undefined) | -2%
CCN(CC)CCn1c(-c2ccccc2)nc2c(NCc3ccccc3)nc(C)nc21 | 20µM*
Cn1c(=O)oc2cc(S(=O)(=O)NCCC(=O)N3CC=C(c4ccccc4)CC3)ccc21 | 6%

Some of the entries so far, as tab-separated lines.
Structure	HSD17B inhib
COc1cccc(-c2nccc(NCc3cccc(C)c3)n2)c1	-14%
COc1ccc(-c2cc(CCCC(=O)NCc3ccccn3)no2)cc1	-2%
CCc1ccc(CNc2ccc(N3CCN(C(C)=O)CC3)cc2)cc1	25µM*

Further compounds:
SMILES | HSD17B inhib
N[C@@H](Cc1cnc[nH]1)C(=O)O | 7%
Cc1ccc(CNC(=O)C2CCN(S(=O)(=O)c3cccs3)CC2)o1 | -9%
CCCCN(CC)C(=O)CN(C)S(=O)(=O)c1cccc2nsnc12 | 5%
COc1cc(C)c(S(=O)(=O)Nc2ccc(CC(=O)O)cc2)cc1C | 6%
CC(=O)N1CCc2cc(S(=O)(=O)NC(CC(C)C)C(=O)N3CCn4c3nc3ccccc34)ccc21 (centres undefined) | -5%
CN(C)C(=O)c1ccc(-c2cc(N(C)Cc3ccco3)ncn2)cc1 | ?
CCC(=O)N1CCc2cc(S(=O)(=O)NCCCN(CC)Cc3ccccc3)ccc21 | -9%
CCCc1ccc(C(=O)CCC(=O)O)cc1 | 7%
COc1ccc2c(=O)c3c(=O)n(Cc4ccco4)c(C(C)C)nc3oc2c1 | -4%
O=C(NCCc1ccc(Cl)cc1)C1CC(=O)N(C2CCCCC2)C1 (centres undefined) | 4%
NC[C@H](O)C1CCCCCCC1 | -14%
O=C(O)CCCCCNS(=O)(=O)c1c(Cl)cccc1Cl | 8%
Cc1cccc(-n2nnnc2SCn2nnc3ccccc3c2=O)c1 | -11%
COc1ccc(N2CCN(c3nc4c(c(=O)[nH]c(=O)n4C)n3Cc3ccccc3Cl)CC2)cc1 | -5%
CCCCNC(=O)CSc1nc2ccc(N3CCOCC3)cc2c(=O)n1CCc1ccccc1 | ?
Cn1c(C(=O)N2CCCC2)cc2c(=O)n(C)c3ccccc3c21 | -4%
O=C(NCCc1ccccc1)c1cccnc1N1CCCCCC1 | 5%
Cc1ccc(Br)cc1S(=O)(=O)N1CCN(c2ccccc2)CC1 | -7%
CC(=O)c1cccc(NC(=O)NCc2ccccn2)c1 | 5%
CCOC(=O)/C=C1\SCC(=O)N1CC(=O)Nc1ccccc1OC(F)F | 3%
Cc1ccc(-n2nc(-c3ccc(N)cc3)cc2N)cc1 | -4%
Cc1nc(CSc2nc3[nH]ncc3c(=O)n2-c2ccccc2)cs1 | -4%
COc1ccc(S(=O)(=O)N2CCN(S(=O)(=O)c3ccc(C(F)(F)F)cc3)CC2)cc1C | 13%
Cc1ccc(NCc2nnc(SCC(=O)Nc3cccc(O)c3)n2CC2CCCO2)c(C)c1 (centres undefined) | 3%
COC(=O)Cn1c(CN2CCC(Cc3ccccc3)CC2)nc2c1c(=O)n(C)c(=O)n2C | 1%

Additional compounds.
SMILES | HSD17B inhib
CCOC(=O)CSc1nnc(CNC(=O)c2cccs2)n1-c1cccc(C)c1 | 11%
CC1(C)CC(CCNC(=O)c2ccc(-n3cnnn3)cc2)CC(C)(C)N1 | 0%
O=C(O)Cn1cc2c(n1)CCCC2 | -4%
COc1ccc(NC(=O)C2CCCN(S(=O)(=O)c3cccc4cccnc34)C2)cc1 (centres undefined) | 5%
CC(=O)NCCn1c(SCc2ccccc2F)nc2ccccc2c1=O | -1%
O=C1c2ccccc2C(=O)N1CSc1nnnn1-c1ccccc1 | 4%
CC12CCCCC1c1ccccc1C(=NCC(=O)O)N2 (centres undefined) | 4%
NC(=O)CCCCC(=O)OCCCc1cccs1 | -7%
COc1ccc(NC(=O)CN2c3cccc4cccc(c34)S2(=O)=O)cc1 | ?
O=C(c1c(F)c(F)c(F)c(F)c1F)N1CCN(c2cccc(C(F)(F)F)c2)CC1 | -5%
O=C(NCc1ccco1)C1CCC(N2C(=O)c3ccccc3C2=O)CC1 (centres undefined) | -9%
O=C(Nc1ccc(F)cc1)N1CCC(c2nc3c(nnn3Cc3cccc(Cl)c3)c(=O)[nH]2)CC1 | 10%
COc1ccc(N2CCN(c3oc(-c4ccccc4OC)nc3C#N)CC2)cc1 | ?
CC(=O)NS(=O)(=O)c1ccc(NS(=O)(=O)c2ccc(F)cc2)cc1 | -5%
O=S(=O)(NCc1csc(-c2ccccc2)n1)c1ccc(Cl)s1 | -7%
CCOC(=O)N1CCN(C(=O)CN(c2ccc(C)cc2)S(=O)(=O)c2c(C)noc2C)CC1 | 8%
CC1(C)OC(=O)NC1=O | 6%
COc1cc(C2c3c(oc4c(C)cc(C)cc4c3=O)C(=O)N2Cc2cccnc2)ccc1O (centres undefined) | -6%
CCC(c1nnnn1Cc1ccccc1)N1CCN(C(=O)c2ccco2)CC1 (centres undefined) | -2%
Cc1ccsc1C(=O)N1CC(=O)Nc2ccccc21 | 4%
O=C(CNS(=O)(=O)c1ccc(F)cc1)N1CCN(c2ccc(F)cc2)CC1 | 7%
c1ccc2c[n+](Cc3ccnc4ccccc34)ccc2c1 | 1%[11.4 µM]
CC(=O)Nc1ccc(N(C(=O)c2cnccn2)C(C(=O)NC2CCCCC2)c2ccc(O)cc2)cc1 (centres undefined) | 10%
Cc1ccc(Oc2ccccc2)c(NC=O)c1 | -7%
O=C(Nc1ccc2c(c1)OCCO2)C1CCCN(S(=O)(=O)Cc2ccccc2)C1 (centres undefined) | 5%

(cont.)
SMILES | HSD17B inhib
Cc1ccsc1C(=O)OCC(=O)N1CCOCC1 | 5%
COc1ccc(-n2nnc3c(=O)n(CC(=O)N4CCCCC4)cnc32)cc1 | 3%
Cc1ccccc1Nc1nc(N)nc(COC(=O)c2cccn2C)n1 | -4%
O=C(NCc1ccco1)C(C(=O)c1ccccc1)n1ccccc1=O (centres undefined) | -11%
CCCn1c(C)nc2c(N(CCOC)CCOC)nc(C)nc21 | 3%
CCn1c(SCC(=O)Nc2cc(C)on2)nnc1-c1cccnc1 | 14%
COc1ccc(CNc2cc(-c3ccccc3C)ncn2)c(OC)c1 | -1%
Clc1ccccc1NN(Cc1ccccn1)c1ccccc1Cl | -3%[11.4 µM]
CC(C)(C)c1cnnn1-c1ccc(NC(=O)c2ccc3c(c2)OCO3)cc1 | -20%
c1ccc(-c2noc(-c3cccc4ccccc34)n2)cc1 | 32µM*
Cc1cnn(C(=S)NCCc2ccccc2)c1 | 5%
O=C(CCSc1ccccc1)N1CCN(C(=O)c2ccco2)CC1 | 3%
COc1ccc2nc(C)cc(SCC(=O)O)c2c1 | ?
COC(=O)[C@@]1(Cc2ccc(OC)cc2)[C@H]2c3cc(C(=O)N4CCCC4)n(CCN4CNCC4=O)c3C[C@H]2CN1C(=O)c1ccccc1 | -6%
COc1ccc(CC/C(=N\O)C2(O)CCCCC2)cc1 | 4%
O=C(Cn1[nH]c(=O)c2ccccc2c1=O)OCC(=O)N1CCc2ccccc2C1 | 8%
CCCCCCC[N+](CC)(CC)CCCCc1ccc(Cl)cc1 | -4%[25.6 µM]
COc1ccccc1CN1CCCC2(CCN(C(=O)c3csnn3)CC2)C1 | 3%
Cc1ccc(CN2C(=O)CCC2C(=O)NCCN2CCOCC2)cc1 (centres undefined) | 1%
COC(=O)c1c[nH]n2c(=O)cc(C)nc12 | -5%
CCc1sc(NS(C)(=O)=O)nc1-c1ccccc1 | -7%
CCOc1ccc2nc(-c3ccccc3)[nH]c2c1 | 25µM*
COCCNC(=O)c1ccccc1NC(=O)CN(c1ccc2c(c1)OCO2)S(C)(=O)=O | 9%
O=C(NCCN1CCOCC1)c1ccccc1-c1ccccc1 | 8%
COc1cc(-c2nnc(-c3ccncc3)o2)ccc1OCc1ccccc1 | ?

(list continues)
SMILES | HSD17B inhib
O=C(Nc1ccccc1)NC1(C(=O)NCc2ccc3c(c2)OCO3)CCCCC1 | 10%
Cc1cc(NC(=O)c2cnn3c(C(F)F)cc(C4CC4)nc23)no1 | ?
CCCS(=O)(=O)N1CCN(C(=O)c2ccc(-c3ccccc3)cc2)CC1 | 8%
CC(C)(N=NC(C)(C)C1=NCCN1)C1=NCCN1 | 7%[11.4 µM]
COc1cc(C(=O)Nc2nnc(CC(=O)N3CCOCC3)s2)cc(OC)c1OC | -4%
CCS(=O)(=O)N1CCC(C(=O)NCCN2CCN(Cc3ccccc3)CC2)CC1 | 15%
CC(C)CCn1c(SCCc2ccccc2)nc2c1c(=O)[nH]c(=O)n2C | 5%
CC1Cc2ccccc2N1C(=O)Cn1c(=O)oc2cc(S(=O)(=O)N3CCCCC3)ccc21 (centres undefined) | -1%
COc1ccccc1-c1ccc2ncnc(N3CCN(C)CC3)c2c1 | -2%
CCn1c(Oc2ccc(Oc3ncc(Cl)cc3Cl)cc2)nc2c1c(=O)n(C)c(=O)n2C | 3%
COc1cccc(NS(=O)(=O)c2ccc3[nH]cc(C(=O)NCCN4CCOCC4)c(=O)c3c2)c1 | -12%
O=C(O)CCc1nc(-c2ccc(Cl)cc2)no1 | 12%
O=S(=O)(NCc1cccs1)c1cccc(S(=O)(=O)N2CCCCC2)c1 | 2%
Cc1oc(-c2ccc(Cl)cc2)nc1CN1CCC(C(=O)N2CCN(Cc3ccccc3)CC2)CC1 | -4%
FC(F)(F)c1cccc(-c2nc3nc(Cl)c(Cl)nc3[nH]2)c1 | 4µM*
CC(C)n1c(SCC(=O)N2CCCC2)nc2c1c(=O)n(C)c(=O)n2C | 2%
COc1cccc(C(=O)Nc2ncc3c(n2)CC(C)(C)CC3=O)c1 | 2%
COc1ccccc1-c1ccc2ncnc(Nc3ccccc3)c2c1 | -18%
CC(C)N1C(=O)c2ccccc2C1C(=O)NC1CCCCCC1 (centres undefined) | -1%
COc1ccc(C(c2nnnn2Cc2ccccc2)N2CCN(c3ccccc3)CC2)cc1 (centres undefined) | -12%
Cc1occc1-c1nnc(SCC(=O)Nc2ccccc2)n1CCc1ccccc1 | -7%
Cc1nc2cc(CO)ccc2n1C | -5%
CCn1c(SCC(=O)NC2CCCCC2)nnc1-c1cccs1 | 1%
CCCS(=O)(=O)N1CCC(C(=O)N2CCN(C(=O)OCC)CC2)CC1 | -8%
O=S(=O)(c1ccccc1)N1CCN(Cc2ccccc2C(F)(F)F)CC1 | -4%

Retrieved by structure from the list above, three records:
SMILES | HSD17B inhib
CC(C)n1c(SCC(=O)N2CCCC2)nc2c1c(=O)n(C)c(=O)n2C | 2%
Cc1nc2cc(CO)ccc2n1C | -5%
Cc1oc(-c2ccc(Cl)cc2)nc1CN1CCC(C(=O)N2CCN(Cc3ccccc3)CC2)CC1 | -4%
